# High-throughput results (PubChem)
# SmPrx2 inh = inhibitors of Schistosoma mansoni peroxiredoxin 2. S. mansoni Prx2 activity coupled to TGR/GSH (TGR is thioredoxin glutathione reductase), NADPH fluorescence loss, qHTS; some inactives read as strong as hits. Potency, µM. 65,000 compounds, 0.07% hits. AID 448; active means full or partial inhibition curve with a strong effect at the top dose; inconclusive means weaker partial or single-point curve; inactive means no accepted curve; note: series up to 57 µM; many of its hits are not listed in these tables
#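 Prx2 activity was followed as the loss of NADPH fluorescence (ex 365/em 450 nm), read every 30 sec for 8 min after H2O2 start. The enzyme mix (50 nM Prx2, 25 nM TGR, GSH, NADPH; pH 7.4 phosphate buffer) was incubated with compound for 15 min at room temperature first.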
# LT uptake inh = blocks cellular internalization of anthrax lethal toxin; Cells, anthrax lethal toxin internalization, FRET ratio (460/530); Potency, µM (titrated, usually from 40 µM), inactives show top-dose activity change, negative = inhibition, hits mostly inhibitors; 70,000 compounds, 0.67% hits; AID 912; active = well fitted falling ratio curve with the 530 nm signal flat; inconclusive = other ratio curves, or a change in one channel alone; inactive = flat curves in the ratio and both channels; the % refers to the ratio; note: % is set by controls: 0 for no effect and ±100 for the full control effect; nearly all actives have a fitted effect of over 50% in size; tested in ME-180 cells; beta-lactamase reporter
# * hit, by the source's call; u = inconclusive; x = not tested or not shown; [ ] = remark or other dose. Potency is the fitted concentration of half-maximal effect.
SMILES,SmPrx2 inh,LT uptake inh
CCCNC(=O)CS(=O)Cc1nc(-c2ccc(OC)cc2)oc1C (configuration not stated),>57,1.2%
N/C(CC(=O)Nc1cccc(C(F)(F)F)c1)=N/O,>57,7.5%
CCc1nc(NCCCn2ccnc2)c2oc3ccccc3c2n1,>57,13.7%
COc1ccccc1N=Cc1c(O)n(C)c(=O)n(C)c1=O,x,u
CCOc1ccccc1Nc1nc(N)nc(CN(C)C2CCCCC2)n1,>57,5.1%
CN1CCN(c2ncc3nc(CCc4ccccc4)c(=O)n(Cc4ccc(F)cc4)c3n2)CC1,>57,-22.7%
CCN(CC)S(=O)(=O)c1cccc(C(=O)Nc2nc3cc4c(cc3s2)OCCO4)c1,>57,u
Cc1cc(OCC(=O)OC(C)(C)C)c2c3c(c(=O)oc2c1)CCC3,>57,0.8%
Cn1c(=O)n(Cc2ccccc2F)c2ccccc21,>57,u
Cc1cc(C)cc(Nc2cc(=O)n(C3CCCCC3)c(=O)[nH]2)c1,>57,6.8%
O=C(CCn1c(=O)c2ccccc2n(CC(=O)NCCC2=CCCCC2)c1=O)NCc1ccco1,>57,5.1%
Cn1nnnc1SCC(=O)NC(=O)NCc1ccccc1,>57,-16.7%
O=C(NCc1ccco1)c1noc2c1CCCCC2,>57,-20.3%
CCOC(=O)N1CCC(NC(=O)c2csc3c2CCCC3)CC1,>57,-7.9%
CC1=C(C(=O)Nc2cccc(C)n2)C(c2ccc3c(c2)OCO3)C2=C(CC(c3ccco3)CC2=O)N1 (configuration not stated),x,u
O=C(c1ccco1)N(Cc1cc2ccccc2[nH]c1=O)C1CCCCC1,>57,5.6%
CCOCCOC(=O)C1=C(C)Nc2ccc(C)cc2S1,>57,u
O=C(O)[C@H]1C[C@@H]1[C@H](NP(=O)(c1ccccc1)c1ccccc1)c1ccccc1,>57,1.1%
CCC(c1nnnn1C1CCCCC1)N(Cc1ccco1)Cc1cc2ccc(OC)cc2[nH]c1=O (configuration not stated),>57,6.4%
CCCCn1c(=O)c2ccccc2c2ccccc2c1=O,>57,u
CCOC(=O)COc1ccc(S(=O)(=O)N2CCc3ccccc3C2)cc1,>57,u
Cn1c(=O)c(C(=O)CN2CCCc3ccccc32)c(N)n(Cc2ccccc2)c1=O,>57,u
CCC(c1nnnn1Cc1ccco1)N(Cc1cc2cc(OC)ccc2[nH]c1=O)C1CCCCC1 (configuration not stated),>57,6.1%
Cc1noc(C)c1S(=O)(=O)Nc1ccc(C(=O)NCCc2ccccc2)cc1,>57,-4.4%
COC(=O)C1=C(N)Oc2cc(C)n(C)c(=O)c2C1c1ccc(Cl)cc1 (configuration not stated),>57,x
Cc1cc(C)n2nc(SC(C)C(=O)N3CCC4(CC3)OCCO4)nc2n1 (configuration not stated),>57,-1.4%
O=C(COc1cc(=O)n2c(n1)SCCC2)c1ccccc1,>57,-7.4%
Cc1ccccc1Cn1cc(NC(=O)c2noc3c2CC(C(C)(C)C)CC3)cn1 (configuration not stated),>57,1.4%
Cc1ccccc1Cn1nc(C)c(NC(=O)c2noc3c2CCc2ccccc2-3)c1C,u,u
CSc1ccc2nnc(-c3cccc(F)c3)n2n1,>57,3.4%
CC(C)(CNS(=O)(=O)c1ccc(F)cc1)CNS(=O)(=O)c1ccc(F)cc1,>57,x
CC(C)(C)S(=O)(=O)c1ccc2nc3c(n2c1)CCCC3,x,-20.0%
C#CCCCO/N=C1/[C@H]2O[C@@H]2[C@@H](O)[C@H]2[C@H]1CCn1c(=O)n(C)c(=O)n12,x,-1.2%[8 µM]
O=C(c1ccc2c(c1)OCO2)[C@@H]1[C@@H]2C(=O)N(C3CCCCC3)C(=O)[C@@H]2C2c3ccccc3C=CN21 (some centres not stated),>57,u
CCNC(=O)CC1SC(=Nc2cccc(Cl)c2C)N(C)C1=O (configuration not stated),>57,9.5%
N#Cc1c2n(c3c(=O)n(Cc4ccccc4Cl)cnc13)CCCCC2,>57,-27.5%
COc1ccc(-c2nnc3c4ccccc4c(C)nn23)cc1S(=O)(=O)N1CCN(CCO)CC1,>57,x
CCOC(=O)COc1ccc(S(=O)(=O)Nc2ccc3c(c2)OCCO3)cc1,>57,u
COC(=O)c1ccccc1NC(=O)c1cc(-c2cccs2)on1,>57,4.1%
O=C(CSc1ccc2nnc(-c3cccc(F)c3)n2n1)NCc1ccco1,>57,u
CCOC(=O)C1=C(C)NC(=O)NC1/C=C/c1ccccc1 (configuration not stated),>57,u
CCOc1ccc(C2CC(c3ccc(OC)c(OC)c3)n3nc(N)nc3N2)cc1 (configuration not stated),>57,0.3%
O=C(CCCN1C(=O)CSc2ncccc21)N1CCN(Cc2ccccc2)CC1,>57,0.7%
CC(C)c1nc(=S)c2ccccc2[nH]1,>57,-8.0%
CC(=O)N1CC2(C)CN(C(C)=O)CC(C)(C1)C2=O,>57,-9.7%

# Next section (two carried over from the part before).
SMILES,SmPrx2 inh,LT uptake inh
CC(C)c1nc(=S)c2ccccc2[nH]1,>57,-8.0%
CC(=O)N1CC2(C)CN(C(C)=O)CC(C)(C1)C2=O,>57,-9.7%
Cc1c(-c2ccc(F)cc2)nc(N)c(C#N)c1-c1ccco1,>57,u
Cc1ccc(S(=O)(=O)NC(C(=O)OCC(=O)NC2CCS(=O)(=O)C2)C(C)C)cc1 (configuration not stated),>57,6.8%
CCOC(=O)C1CCN(C(=O)c2oc3ccc(S(=O)(=O)N4CCCCCC4)cc3c2C)CC1,>57,-24.6%
Cc1c(NC(=O)c2cc(-c3ccccc3)on2)c(=O)n(-c2ccccc2)n1C,>57,-7.0%
O=C(CC1NC2CCCCC2NC1=O)Nc1cccc(C(F)(F)F)c1 (configuration not stated),>57,7.0%
O=C(CSc1nc2ccccc2o1)N1CCN(c2ccccc2)CC1,>57,x
COc1cccc(-c2nnc(SCC(=O)Nc3ccc(OC)c(OC)c3)n2N)c1,>57,-2.9%
CCc1cc2c(=O)c(Oc3ccccc3)c(C)oc2cc1O,>57,13.0%
C=CCOC(=O)C(C(C)=O)C(NC(=O)OC)c1ccccc1 (configuration not stated),x,-6.0%[8 µM]
O=CN[C@@H](Cc1cnc[nH]1)C(=O)O,>57,-11.2%[8 µM]
Cc1ccc2c(c1)N(CCCC(=O)NCc1cccnc1)C(=O)CO2,>57,0.6%
O=C(NC1CCCCC1)N1CCC(c2nc(-c3ccc(S(=O)(=O)N4CCCC4)cc3)no2)CC1,>57,9.5%
Cc1ccc2cc(CCNC(=O)C(C)(C)C)c(=O)[nH]c2c1,>57,-1.2%
COC(=O)c1ccccc1NC(=O)c1ccc2c(c1)C(=O)N(Cc1ccco1)C2=O,>57,u
O=C(c1ccncc1)N1CCC[C@@]2(CCN(c3ccncc3)C2)C1,>57,u
CC1CCN(C(=O)CSc2nnc(CN3CCOCC3)n2-c2ccccc2)CC1,>57,u
O=S(=O)(c1ccccc1)N1CCN(c2cc(-c3ccccc3)nc3ncnn23)CC1,>57,-12.5%
CCSC1=C(C#N)C2(CCCC2)C(C#N)=C(N)N1,>57,18.5%
Cc1ccc2c(nc3s/c(=C/c4cccs4)c(=O)n32)c1C,>57,-25.8%
Cn1c(=O)c2[nH]c(COCc3nc4c([nH]3)c(=O)n(C)c(=O)n4C)nc2n(C)c1=O,>57,-2.4%[8 µM]
O=C(CN(Cc1ccco1)C(=O)CNS(=O)(=O)c1ccccc1)NCc1ccc(F)cc1,>57,-12.3%
c1ccc(CN2CCN(c3ncnc4nc[nH]c34)CC2)cc1,>57,9.2%
Cc1cc(=O)oc2cc(OCC(=O)OCC(=O)NCc3ccc4c(c3)OCO4)ccc12,>57,u
C/C=C(\C)C(=O)O[C@@H]1C(C)=C2[C@H]([C@@H]1OC(=O)CCCCCCC)[C@@](C)(OC(C)=O)C[C@@H](OC(=O)CCC)[C@@]1(O)[C@H]2OC(=O)[C@]1(C)O,>57,u
CC(=O)C1=C(C)Nc2cc(C(F)(F)F)ccc2S1,x,-22.5%
O=C(NCCOc1ccc(Cl)cc1)C1CC(=O)N(c2ccc(F)cc2)C1 (configuration not stated),x,-23.6%
CCOc1ccc(NC(=O)c2cnsn2)cc1,>57,22.9%
Cn1cccc1C(=O)Nc1nccs1,>57,u
CCOC(=O)c1cn(CC)c2ccc(Br)cc2c1=O,>57,u
N#CCSc1nc2c(c(C3CC=CCC3)c1C#N)CCC2 (configuration not stated),>57,u
CCOC(=O)N1CCN(C(=O)c2cn(C)c3ccc(S(=O)(=O)N4CCCC4)cc3c2=O)CC1,>57,3.4%
COc1ccc(NC(=O)C2(N(CC(C)C)C(=O)Cn3nnnc3N)CCCCC2)cc1,>57,-6.9%
CCOC(=O)CCCOC(=O)c1ccc(S(=O)(=O)N(C)C)cc1,>57,0.0%
O=C(Nc1ccc2c(c1)OCO2)C1CCCN(S(=O)(=O)c2cccs2)C1 (configuration not stated),>57,-0.4%
COC(=O)c1ccccc1NS(=O)(=O)c1ccc2c3c(cccc13)C(=O)N2,>57,3.0%
CCNc1ncc2nc(-c3cc(F)cc(F)c3)c(=O)n(-c3ccccc3)c2n1,>57,u
COC(=O)c1ccc(NC(=O)CSc2nnc(C)n2-c2ccccc2)cc1,>57,-6.1%
CCN1C(=O)CS/C1=C(\C#N)S(=O)(=O)c1ccccc1,>57,u
Cc1nnc(SCc2cc(=O)[nH]c(N3CCCCC3)n2)s1,>57,-7.7%
Cc1cc(C)c(-c2cc([C@H](C)O/N=C\[C@@H](C)[C@H](OCc3ccccc3)C(C)C)on2)c(C)c1,x,-19.8%[8 µM]
Cc1cccc(N/C(N)=N/c2nc3c(c(=O)[nH]2)CCCC3)c1,>57,16.1%
COc1ccc(C(c2nnnn2CCc2ccccc2)N2CCN(C3CCCC3)CC2)cc1 (configuration not stated),>57,-23.5%
COc1ccc(C2C(C#N)=C(N)OC3=C2C(=O)CC(C)(C)C3)c(OC)c1OC (configuration not stated),>57,-10.0%
FC(F)(F)c1ccc(N2CCOCC2)c(Nc2nc3ccccc3n3cnnc23)c1,>57,2.5%
CCCOc1ccc(/C(O)=C2/C(=O)C(=O)N(CCN(CC)CC)C2c2ccncc2)cc1 (configuration not stated),>57,-5.9%
CC1(C)CC(=O)C=C(NCCc2ccc(S(N)(=O)=O)cc2)C1,x,-5.1%
COc1ccc(C(C)=O)c2c1OCCO2,>57,u
COc1cccc(C(=O)Nc2ccc(C)cc2)c1,>57,-17.4%
COc1ccc(-n2c(SCC(=O)Nc3ccc(C(=O)O)cc3)nnc2-c2cccs2)cc1,>57,1.2%
O=C(NS(=O)(=O)c1ccccc1Cl)c1ccc[nH]1,>57,-2.2%
Cn1c(N2CCN(C(=O)NCc3ccccc3)CC2)nc2ccccc21,>57,u
COc1ccc(NC(=O)NCc2ccccn2)cc1OC,>57,-3.4%
CCCC(=O)Nc1cccc(-c2nc3cc(C)c(C)cc3o2)c1,x,-7.4%
COc1ccccc1N1CCN(C(=O)c2ccc(S(=O)(=O)N3CCCCC3)cc2)CC1,>57,2.6%
Cc1ccc(-c2nnc3sc(-c4ccc5c(c4)OCCO5)nn23)cc1,>57,-4.1%
O=C1C[C@H]2OCCC=C3CN4CC[C@@]56c7ccccc7N1[C@@H]5[C@H]2[C@H]3C[C@@H]46,>57,u
Cn1c2ccc(Cl)cc2c2nc3ccccc3nc21,>57,-15.5%
O=C1NC2=C(C(=O)CCC2)C(c2ccc3ncccc3c2)N1 (configuration not stated),>57,-6.0%
COc1ccc(CN(Cc2cccnc2)S(=O)(=O)c2ccc(-n3cnnn3)c(C)c2)cc1OC,>57,4.6%
COc1ccccc1C(=O)N1CCN(C2CCN(Cc3ccccc3)CC2)CC1,>57,-9.6%
# Next section
SMILES,SmPrx2 inh,LT uptake inh
O=C1c2ccccc2C(Nc2ccc3c(c2)OCCO3)N1Cc1ccccc1 (configuration not stated),>57,u
Cc1ccc(C)c(OCC(=O)Nc2nonc2NC(=O)COc2cc(C)ccc2C)c1,>57,-21.2%
Cc1ccccc1Nc1nc(N)nc(CSc2nnnn2-c2ccccc2)n1,>57,-1.0%
Cc1ccc2nc(N3CCN(Cc4ccc(F)cc4)C3=O)c(C)cc2c1,>57,-22.5%
CCOC(=O)C1C2C=CC3(CN(c4ccc(Cl)c(F)c4)C(=O)C13)O2 (configuration not stated),>57,14.4%
CCC(CC)C(=O)NCCc1cc2c(OC)ccc(OC)c2[nH]c1=O,>57,0.2%
COC(=O)c1[nH]c2ccccc2c1NC(=O)CN1CCN(C(=O)c2ccco2)CC1,>57,7.6%
Cc1ccc(O)c(NC(=O)C2CC(c3c(F)cccc3Cl)=NO2)c1 (configuration not stated),>57,u
CCOC(=O)c1cnc(=O)[nH]c1C,>57,-11.5%

# Laid out differently: results already given
molecule	SmPrx2 inh	LT uptake inh
CCOC(=O)C1C2C=CC3(CN(c4ccc(Cl)c(F)c4)C(=O)C13)O2 (configuration not stated)	>57	14.4%
Cc1ccc(O)c(NC(=O)C2CC(c3c(F)cccc3Cl)=NO2)c1 (configuration not stated)	>57	u
Cc1ccc2nc(N3CCN(Cc4ccc(F)cc4)C3=O)c(C)cc2c1	>57	-22.5%
O=C1c2ccccc2C(Nc2ccc3c(c2)OCCO3)N1Cc1ccccc1 (configuration not stated)	>57	u
Cc1ccccc1Nc1nc(N)nc(CSc2nnnn2-c2ccccc2)n1	>57	-1.0%
Cc1ccc(C)c(OCC(=O)Nc2nonc2NC(=O)COc2cc(C)ccc2C)c1	>57	-21.2%

# A portion of the library, so the mix of outcomes need not match the whole.
